# High-throughput results from PubChem.
# KCNQ2 enhance: enhances the rat KCNQ2 potassium channel | 0.54% of 310,000 active | O88943 | B-score at 10 µM | AID 2239 | CHO-K1 KCNQ2, FluxOR thallium flux fluorescence; stronger effect = higher value;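 active = fluorescence ratio B-score at least 3 SD of library B-scores, with initial fluorescence B-score within 3 SD, cut at about 5.3 in these data; same plate scores as AID 2156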;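 note: B-score of peak minus minimum over baseline fluorescence ratio after K+ and Tl+ stimulus; positive B-score means potentiation of KCNQ2 with more thallium influx and brighter signal; only the inactives scoring about 0 or higher are listed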
# Target sequence (O88943 whole entry, looked up): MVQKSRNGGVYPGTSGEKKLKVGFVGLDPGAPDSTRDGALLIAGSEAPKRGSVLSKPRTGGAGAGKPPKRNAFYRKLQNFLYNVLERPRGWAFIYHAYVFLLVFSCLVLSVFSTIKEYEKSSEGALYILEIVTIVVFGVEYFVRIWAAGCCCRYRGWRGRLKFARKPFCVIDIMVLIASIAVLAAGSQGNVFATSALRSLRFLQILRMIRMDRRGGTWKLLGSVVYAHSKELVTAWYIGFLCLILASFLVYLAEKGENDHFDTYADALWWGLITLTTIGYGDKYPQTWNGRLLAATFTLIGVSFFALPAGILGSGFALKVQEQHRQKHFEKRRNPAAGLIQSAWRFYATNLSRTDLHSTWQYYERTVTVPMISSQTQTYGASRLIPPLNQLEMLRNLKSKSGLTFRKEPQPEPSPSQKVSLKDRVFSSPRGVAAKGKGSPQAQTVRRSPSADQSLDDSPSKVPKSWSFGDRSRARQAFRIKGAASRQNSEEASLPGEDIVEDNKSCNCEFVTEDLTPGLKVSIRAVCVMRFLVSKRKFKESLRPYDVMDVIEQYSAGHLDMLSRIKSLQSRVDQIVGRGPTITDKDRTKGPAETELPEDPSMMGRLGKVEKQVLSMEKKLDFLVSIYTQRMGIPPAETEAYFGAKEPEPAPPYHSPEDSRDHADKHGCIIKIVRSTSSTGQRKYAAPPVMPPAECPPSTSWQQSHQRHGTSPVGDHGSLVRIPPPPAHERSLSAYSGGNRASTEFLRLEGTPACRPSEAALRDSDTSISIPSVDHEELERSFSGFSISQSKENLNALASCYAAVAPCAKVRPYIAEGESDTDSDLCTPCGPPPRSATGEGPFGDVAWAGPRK
# KCNQ2 enhance baseline: also measured in KCNQ2 enhance; calls as there; B-score; compound at 10 µM; measured here: initial fluorescence intensity artifact check;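 brightness before thallium and not channel activity; 0 = typical well and far values either way flag optical interference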
# Starred values were filed as active, the others as inactive. Not all compounds are listed, so the mix of outcomes need not match the whole.
KCNQ2 enhance	KCNQ2 enhance baseline	mol
0.07	1.9	CCCN1CCC(NCC(C)c2ccccc2)CC1 (stereo not drawn)
1.9	-0.02	CCOc1ccccc1C1NC(=O)NC(C)=C1C(=O)OC1CCCCC1 (stereo not drawn)
1.6	-0.13	COc1ccc(C)cc1S(=O)(=O)N(C)CC(=O)N1CCCCC1
1.1	0.3	O=C(NCCN1CCOCC1)c1ccc(CSCc2cccc(Cl)c2)o1
0.02	1.1	CCOC(=O)C1CCN(C(=O)C(=O)c2cn(CC(=O)N3CCCCCC3)c3ccccc23)CC1
0.66	0.16	CCCc1c(C)nc2c(OC)cccc2c1SCC(=O)O
1.4	0.75	CCOc1ccccc1/C=N/Nc1nc2ccccc2o1
0.73	0.38	NC(=O)CC(NC(=O)Cc1cccc2ccccc12)c1ccc(NCCc2ccc(F)cc2)c([N+](=O)[O-])c1 (stereo not drawn)
0.78	0.66	COCCNC(=O)/C(C#N)=C/C=C/c1ccccc1
0.34	-1.1	COc1ccc(C(=O)OCC(=O)NC2CC2)cc1S(=O)(=O)N(C)Cc1ccccc1
0.13	-0.2	Cc1[nH]c(=O)[nH]c1C(=O)CCCCC(=O)OCC(=O)Nc1ccccn1
1.9	-0.46	COc1ccc(-n2c(N)c(-c3nc4ccccc4n3C)sc2=S)cc1
1	-1.2	COc1cccc(C(=O)Nc2ccc(S(=O)(=O)NCc3ccco3)cc2)c1
0.3	-0.19	CCOC(=O)c1c(CN2CCOCC2)oc2ccc(OC)cc12
0.53	-0.91	Cc1c(/C=N\NC(=O)c2cccc(F)c2)cnn1C
0.32	-1.1	O=c1oc2cc(O)ccc2cc1S(=O)(=O)c1ccccc1
0.37	-0.12	CC(=O)Nc1ccc(S(=O)(=O)N2CCCC2)cc1
1.3	1.6	O=C(Nc1cccc(-c2cn3ccccc3n2)c1)c1cccc(Cl)c1
0.06	0.68	Cc1cc(C(=O)OC(C)C(=O)Nc2cccc(S(=O)(=O)N3CCOCC3)c2)c(C)o1 (stereo not drawn)
0.14	-0.29	CCC1=C(OC(=O)N(CC)CC)N2C(=O)OC(=NCCOC)[C@]2(Cc2ccccc2)[C@H]2C1=CC[C@H]1C(=O)N(CC)C(=O)[C@H]12
1.2	0.26	CCCc1cc(=O)[nH]c(SCC(=O)c2[nH]c(C)c(C(=O)OCC)c2C)n1
2	-0.36	O=C(N/N=C/c1ccsc1)c1ccc2ccccc2n1
0.01	-0.55	CC(=O)N(c1ccc(C)cc1)C1C=CS(=O)(=O)C1 (stereo not drawn)
0.51	-1.6	O=C(Oc1ccc2c(-c3ccccc3)cc(=O)oc2c1)c1cccs1
1.1	0.27	COc1ccc(NC(=O)CCCN2C(=O)C3C4C=CC(C4)C3C2=O)c(OC)c1 (stereo not drawn)
0.35	-1.6	COC(=O)Nc1ccc(S(=O)(=O)n2cnc3ccccc32)cc1
1.4	1.2	CCn1c(=O)n(CC(=O)Nc2cc(OC)c(OC)c(OC)c2)c(=O)c2ccccc21
1.9	-2.8	COc1ccc(CN2CCN(c3ccc(F)cc3)CC2)c(OC)c1OC
2	-2	O=S(=O)(Nc1cccc(-n2cnnn2)c1)c1cc(Br)ccc1Br
0.03	1.4	CN(C)C(=O)C[n+]1ccc(C(N)=O)cc1
0.44	0.32	CCSc1nnc(NC(=O)c2cccnc2)s1
0.95	0.27	O=c1c2nncn2c2cccnc2n1CCNc1ncc(C(F)(F)F)cc1Cl
0.47	0.8	CC(C)(C)NC(=S)N1CCC(C(=O)c2ccc(F)cc2)CC1
0.02	1.2	COc1ccc(-c2nc(SCC(=O)N3CCOCC3)n[nH]2)cc1
0.6	0.59	COc1ccc(-n2nc3c(c2NC(=O)c2ccc4c(c2)OCO4)CS(=O)(=O)C3)cc1
0.76	0.29	CCCOC(=O)Nc1ccc(S(=O)(=O)Nc2ncccn2)cc1
0.29	-0.82	COc1ccc2cc(C(=O)N3CCN(c4ccccc4F)CC3)[nH]c2c1
0.19	-0.82	CCOc1ccc(/C=N/NC2=NCCCCC2)cc1
0.5	1.4	COc1ccccc1N(C)S(=O)(=O)c1ccc(C(=O)Nc2ccc3nc(C)sc3c2)cc1
0.51	1.3	CCc1ccccc1N(CC(=O)NC1CCCC1)C(=O)CNC(=O)c1cccs1
0.42	0.68	CN(CCCC(=O)NCc1ccccc1)S(=O)(=O)c1ccc([N+](=O)[O-])cc1
0.53	0.07	COc1ccc(CCNC(=O)C2CCN(S(=O)(=O)c3ccc(OC)c(OC)c3)CC2)cc1OC
0.75	-0.48	COC(=O)CC1=NN(c2ccccc2)C(=O)C1
0.09	0.36	COc1cc([N+](=O)[O-])cc(/C=N/NC(=O)CSc2nnc(-c3ccccc3)n2C)c1O
0.19	0.01	CCCOC(=O)CC1C(=O)NCCN1Cc1ccc(F)cc1 (stereo not drawn)
3.7	-0.42	O=C(NCc1cccc(C(F)(F)F)c1)N1CCN(S(=O)(=O)c2ccccc2F)CC1
0.33	1.4	CC(=O)Oc1cc2c(C(=O)NCCN3CCOCC3)c(C)oc2c2ccccc12
0.82	-2	O=C(N/N=C/c1ccco1)C1CCCC1
0.57	0.69	Cc1cccc(NC(=O)NN2CCN(C)CC2)c1C
1.5	-0.93	CC(C)(C)Cn1c(=O)[nH]c(=O)c2cc([N+](=O)[O-])cnc21
1.6	0.19	CCOc1ccc(N2CC(=O)Nc3ccccc3NCC2=O)cc1
0.07	0.2	CC(C)OC(=O)c1cc2c(ccn2-c2ccc(F)cc2)n1CC(=O)N1CCN(C(=O)c2ccco2)CC1
2.1	-0.45	NS(=O)(=O)c1ccc(CNC(=O)Cc2ccccc2[N+](=O)[O-])cc1
0.25	0.84	O=C1CC(SC(=Nc2ccccc2)Nc2ccccc2)C(=O)N1c1ccc(Cl)cc1 (stereo not drawn)
0.42	2.3	NC(=O)C1CCCN(S(=O)(=O)c2ccc(Br)cc2)C1 (stereo not drawn)
0.36	1.5	CC(=O)Nc1cccc(C(=O)Nc2ccccc2C(=O)O)c1
0.9	0.15	Cc1ccc(NC(=O)Cc2nnc(SCC(=O)NC3CCCC3)n2C)c(C)c1
0.4	-2.7	COc1ccccc1C(=O)CSc1nnc(-c2ccco2)o1
0.12	1.2	CN(C)S(=O)(=O)c1ccc(C(=O)OCCCN=C2NS(=O)(=O)c3ccccc32)cc1
0.05	0.71	Cc1ccc(C(=O)N2CCc3ccccc32)cc1[N+](=O)[O-]

# The list goes on; the last 6 above are carried over.
KCNQ2 enhance	KCNQ2 enhance baseline	mol
0.42	2.3	NC(=O)C1CCCN(S(=O)(=O)c2ccc(Br)cc2)C1 (stereo not drawn)
0.36	1.5	CC(=O)Nc1cccc(C(=O)Nc2ccccc2C(=O)O)c1
0.9	0.15	Cc1ccc(NC(=O)Cc2nnc(SCC(=O)NC3CCCC3)n2C)c(C)c1
0.4	-2.7	COc1ccccc1C(=O)CSc1nnc(-c2ccco2)o1
0.12	1.2	CN(C)S(=O)(=O)c1ccc(C(=O)OCCCN=C2NS(=O)(=O)c3ccccc32)cc1
0.05	0.71	Cc1ccc(C(=O)N2CCc3ccccc32)cc1[N+](=O)[O-]
0.39	-0.67	Cc1cc2c(cc1C)CSC(c1ccc3ccccc3c1O)SC2
0.29	-0.41	O=C(Nc1ccc(N2CCOCC2)cc1)c1cc2ccccc2o1
0.85	-0.18	COC(=O)Nc1c(C)nn(Cc2ccccc2C)c1C
2.1	-0.08	Cc1cc(=O)[nH]c(N2CCOCC2)n1
0.52	-2.5	COC(=O)c1c(SCC(=O)Nc2ccc(C)cc2)nc(=O)[nH]c1C
0.13	0.81	COc1c(C)cc(C(=O)C2CCCN(C(=O)c3cc(C)on3)C2)cc1C (stereo not drawn)
1.8	1.3	COc1ccc(CN2CCC(n3nccc3NC(=O)CCc3ccccc3)CC2)c(C)c1C
0.05	-0.33	Cc1csc(NC(=O)c2ccoc2C)n1
0.8	0.61	CC(=O)N/C(=N\c1nc(C)cc(C)n1)Nc1ccc(Cl)cc1Cl
0.62	0.44	CCOc1ccc(S(=O)(=O)N2CCN(C(=O)CCC(=O)N3CCOCC3)CC2)cc1
2.9	1.4	Cn1cc(-c2nnnn2-c2cccc(C(F)(F)F)c2)c(C(F)(F)F)n1
1.7	-0.01	O=C(c1ccc2c(c1)OCO2)C1CCCN(C(=O)C2CCOCC2)C1 (stereo not drawn)
0.66	-0.42	CC(Oc1ccc(-c2nccc(-c3ccccn3)n2)cc1)C(=O)NN (stereo not drawn)
0.39	-4.1	CCOc1ccc(N(CC(=O)NCc2ccccc2OC)S(C)(=O)=O)cc1
0.88	0.05	CN(C)/C=C/C(=O)c1ccc(F)cc1
1.6	-0.67	Cc1nc(C)c(-c2csc(Nc3ncccc3C)n2)s1
0.06	-0.74	CN(C1CCS(=O)(=O)C1)S(=O)(=O)c1ccc(C2CCCCC2)cc1 (stereo not drawn)
0.22	-1.3	CC(=O)c1sc(NC(=O)COc2ccccc2)nc1C
0.32	-1.3	CCOC(=O)N1CCC(NC(=O)c2cc(C(=O)NC3CCCC3)ccc2CO)CC1
1.4	0.24	CC(=O)c1cnc2nc(SCc3ccccc3C)nn2c1C
0.07	-0.36	N/C(=N\OC(=O)c1ccco1)c1ccccn1
1	-1.1	CCc1ccccc1NC(=O)CSc1nc(-c2ccccc2)nn1C(=O)c1cccc([N+](=O)[O-])c1
0.33	-1.4	Cc1cccc(Oc2ccc(NC(=O)C3CC=CCC3C(=O)O)cc2)c1 (stereo not drawn)
0.35	-0.11	Cc1ccc(C)c(NC(=O)CN(C)S(=O)(=O)c2ccccc2)c1
0.79	-0.39	CCn1cc(Cl)c(C(=O)NNC(=O)CCn2cc([N+](=O)[O-])cn2)n1
0.38	1	Cc1ccc(NC(=O)CCSc2nnc(-c3ccco3)o2)cc1
0.89	0.87	CCC(C)(C)C1CCC2(CC1)NC(=O)N(CC(=O)N(C)Cc1ccc(OC(F)F)cc1)C2=O (stereo not drawn)
0.05	0.75	CCCNC(=O)COc1ccc(S(=O)(=O)Nc2ccc(C)cc2)cc1
0.12	0.56	O=C(NCC1CCCO1)C(=O)N/N=C/c1cc(Cl)ccc1O (stereo not drawn)
0.08	2.7	COc1cccc(C(C(=O)NC(C)(C)C)N(Cc2ccc(C)cc2)C(=O)CCC(=O)Nc2cc(C)on2)c1OC (stereo not drawn)
0.06	-0.12	Cc1oc2ncnc(N)c2c1C
1.1	0.59	Cc1cc(=O)oc2c3c(cc(OCC(=O)N[C@@H](CC(C)C)C(=O)O)c12)OC(C)(C)CC3
1.4	1.6	COc1ccc(CNC(=O)CCCNC(=O)c2ccc(Cl)cc2)cc1OC
0.6	0.06	O=C(c1ccco1)N1CCN(Cc2nnc(-c3cccc(Br)c3)o2)CC1
0.47	1.6	CC(C)c1ccc(N(CC(=O)NC2CCCC2)C(=O)CCC(=O)Nc2ccccn2)cc1
0.65	0.1	CCOc1ccc(N2CC(C(=O)Nc3ccccc3N3CCOCC3)CC2=O)cc1 (stereo not drawn)
0.05	-0.03	CCSc1cc(Cl)nc(N)n1
0.23	-0.01	Fc1ccc2c(Cl)c(-c3nnc(-c4cccs4)o3)sc2c1
0.08	0.04	CC(C)C(c1nnnn1Cc1ccc(F)cc1)N1CCN(c2ccc(O)cc2)CC1 (stereo not drawn)
0.52	1.4	Cc1cc(O)cc(C)c1Cl
2.9	-1.6	Cc1ccc(Cl)cc1NC(=O)[C@@H]1CCC(=O)N1C1OC(=O)c2ccccc21 (stereo partly drawn)
0.22	0.28	CCCc1nnc(NC(=O)CCC(=O)NC2CCCc3ccccc32)s1 (stereo not drawn)
0.37	1.1	O=C(C1CC(=O)N(c2ccc3c(c2)OCCO3)C1)N1CCCC(C(F)(F)F)C1 (stereo not drawn)
0.11	-0.16	COc1cc(-c2cc(-c3ccccc3)nc(SCC(=O)O)c2C#N)cc(OC)c1OC
0.02	0.86	CC(C)(C)c1cc(CCC(=O)Nc2ccncc2)cc(C(C)(C)C)c1O
0.05	-0.8	Cc1cc(C)cc(N(CC(=O)NC2CCCC2)C(=O)CCC(=O)Nc2nccs2)c1
0.47	0.37	Nc1nnc(-c2ccc(Cl)cc2Cl)s1
0.9	1.7	CCN(CC)C(=O)CNC(=O)Cc1ccc(Cl)cc1
0.04	0.38	CCCc1cc(=O)n2[nH]c(-c3ccc(Cl)cc3)cc2n1
1.2	1.3	Cc1c(NC(=O)c2ccc(S(=O)(=O)N(C)c3ccccc3)cc2)c(=O)n(-c2ccccc2)n1C
1.8	-1.5	COc1ccc(C(C)(C)C)cc1NC(=S)NCCN1CCOCC1
0.26	0.11	CC(=O)N1CCN(c2ccc([N+](=O)[O-])c(NCC3CCCO3)c2)CC1 (stereo not drawn)
0.01	0.72	CCC(=O)c1c[nH]c(C(=O)NCCc2ccccn2)c1
0.3	-0.67	Cc1ccccc1N/N=C1\CCCNC1=O
0.11	0.92	COc1ccc(CNC(=S)Nc2ccccc2Cl)cc1
1.1	1.4	COc1ccccc1C(=O)N(Cc1cccs1)C1CCS(=O)(=O)C1 (stereo not drawn)
0.89	2.1	COc1ccccc1/C=C/C(=O)NCC(=O)N/N=C(/C)c1ccco1
0.22	-0.51	CCc1ccc(/C=C2/Sc3ccccc3N(CC(=O)NCCCOC)C2=O)cc1

# Pulled one by one from the entries so far (5):
KCNQ2 enhance	KCNQ2 enhance baseline	mol
2.9	-1.6	Cc1ccc(Cl)cc1NC(=O)[C@@H]1CCC(=O)N1C1OC(=O)c2ccccc21 (stereo partly drawn)
0.01	0.72	CCC(=O)c1c[nH]c(C(=O)NCCc2ccccn2)c1
0.04	0.38	CCCc1cc(=O)n2[nH]c(-c3ccc(Cl)cc3)cc2n1
0.11	-0.16	COc1cc(-c2cc(-c3ccccc3)nc(SCC(=O)O)c2C#N)cc(OC)c1OC
0.11	0.92	COc1ccc(CNC(=S)Nc2ccccc2Cl)cc1
